# Assay outcomes as filed in PubChem.
# Ecoli rRNA inh: reduced GFP signal of wild-type E. coli, primary screen, bacterial rRNA inhibitor project, GFP/RFP fluorescence, OD600, single point; E. coli WT GFP vs humanized-ribosome RFP mutants, 24 h; stronger effect = lower value; DMSO median 0, no signal -100; GFP signal change (wild-type ribosome), % (no concentration beside the values); 1.6% of 350,000 active;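 active = significant combined selectivity score with lowered wild-type GFP, culture density cut under 30%, mutant RFP and density less affected; inactive = any of these conditions unmet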; note: one replicate is shown; some compounds called inactive have numbers as strong as hits
# ALR H2O2 inh: inhibitors of human ALR sulfhydryl oxidase, primary screen, biochemical, H2O2 detection, HRP-luminol luminescence, single point. purified ALR, DTT oxidation. 3.8% of 290,000 active. FAD-linked sulfhydryl oxidase ALR (Homo sapiens), P55789. inhibition, % (no concentration beside the values);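 active = mean and each replicate at 75% or more; inconclusive = only one of the two met; inactive = neither met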;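 note: stock transfer was 7.5 nL into about 7.5 µL; 0% = neutral wells and 100% = wells with inactivated enzyme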
# Target sequence (P55789 whole entry, looked up): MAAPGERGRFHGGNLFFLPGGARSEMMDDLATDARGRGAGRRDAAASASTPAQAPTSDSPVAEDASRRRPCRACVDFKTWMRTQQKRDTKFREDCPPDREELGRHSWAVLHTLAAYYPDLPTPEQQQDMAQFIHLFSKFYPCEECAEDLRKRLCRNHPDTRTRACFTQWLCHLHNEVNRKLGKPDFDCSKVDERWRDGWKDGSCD
# A1 inh: caspase 3/7 activation in MEF A1-2A-BIM cells, primary screen, A1 inhibitor project, cell-based, luminescence, HTS | Caspase-Glo 3/7 luminescence, 3 h; percent of clofoctol response, vehicle zero | 0.066% of 330,000 active | caspase activation, % (concentration not given with the values);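 active = over half of replicate activation scores above 10%, or exactly half above 10 with the replicate mean above 10; inconclusive = replicate mean below 10 yet half the replicates above 10; inactive = over half of replicates below 10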;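 note: wells of about 30 µL received 50 nL stock; many hits fall short of the cut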
# B2AR ag: beta2AR agonists driving receptor internalization, primary screen, cell-based, FAP fluorogen, flow cytometry | response, % (test concentration not listed) | 0.43% of 340,000 active | Beta-2 adrenergic receptor (Homo sapiens), P07550 | Am2.2-beta2AR cells; reference of the scale not given here;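 active = response above a set limit, near 3 SD of response in nonfluorescent compounds, cut at about 42% in these data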;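 note: stock transfer was 100 nL into about 11 µL; a reference agonist was the positive control; negative values mostly stem from fluorescent compounds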
# Target sequence (P07550 whole entry, looked up): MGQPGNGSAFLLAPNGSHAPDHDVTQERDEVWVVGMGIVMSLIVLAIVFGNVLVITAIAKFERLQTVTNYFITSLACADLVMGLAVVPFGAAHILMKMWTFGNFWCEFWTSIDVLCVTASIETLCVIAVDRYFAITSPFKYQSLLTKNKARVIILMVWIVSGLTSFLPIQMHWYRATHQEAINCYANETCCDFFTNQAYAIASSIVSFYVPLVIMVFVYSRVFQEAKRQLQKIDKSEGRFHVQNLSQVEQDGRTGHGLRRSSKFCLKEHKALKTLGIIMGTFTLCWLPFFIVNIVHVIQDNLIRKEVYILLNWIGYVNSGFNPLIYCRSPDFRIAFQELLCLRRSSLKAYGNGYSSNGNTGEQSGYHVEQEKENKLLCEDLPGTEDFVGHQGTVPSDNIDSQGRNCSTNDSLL
# Calb FLC: C. albicans growth inhibition with fluconazole, primary screen, CaCi-2 strain, Alamar Blue fluorescence; C. albicans CaCi-2 (fluconazole-resistant clinical isolate) + fluconazole, 48 h; growth inhibition, % (concentration not given with the values); 0.57% of 300,000 active;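 active = most replicates above 75%; inconclusive = exactly half above 75%; inactive = most below 75%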;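 note: all wells also contain fluconazole at 8 µg/ml as a sub-toxic cotreatment; 0% = median of DMSO wells and 100% = median of geldanamycin control wells; wells of about 8 µL received 7.5 nL stock; the first replicate is given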
# T cruzi inh: inhibitors of intracellular T. cruzi growth, primary screen, luminescence, NIH3T3 host cells | T. cruzi beta-gal in NIH3T3, 90 h | inhibition, % (test concentration not listed) | 1.4% of 300,000 active | AID 1885, 2009;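 active = mean inhibition across valid replicates above about 55%, limit read from the data; inconclusive = mean below that limit but half or more replicates reach it; inactive = mean below it, under half of replicates reach it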;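 note: signal also drops with host cell toxicity which is not excluded here; 0% = plate median of DMSO wells and 100% = zero luminescence signal; higher percent means less beta-gal luminescence so fewer parasites; stock transfer was 50 nL into about 50 µL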
# Beta apoptosis: inhibitors of cytokine-induced beta cell apoptosis, primary screen, luminescence. protection from apoptosis, % (test concentration not listed). 0.8% of 300,000 active. INS-1E cytokine-induced death, ATP luminescence, 48 h; percent of positive-control rescue, neutral wells zero;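 active = all replicates at 75% or more, or half of them and the mean; inconclusive = half reach 75% but not the mean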;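 note: 0% = cytokine-treated negative control wells and 100% = positive control rescue; higher means more ATP so stronger rescue from cytokine killing; wells of about 40 µL received 100 nL stock; the first replicate is given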
# LANA-H2A inh: blockers of LANA interaction with H2A/H2B – biochemical, FP readout, HTS, primary screen. cell-free LANA-H2A/H2B peptide, fluorescence polarization. AID 2629, 2010. inhibition, % (test concentration not listed). 0.6% of 320,000 active. Protein LANA1 (Human herpesvirus 8 type P (isolate GK18)), Q9QR71; in the data active = inhibition mostly above about 10%, no sharp cut-off; inactive = mostly below about 6.7%;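 note: stock transfer was 7.5 nL into about 10 µL; 0% = median of vehicle wells and 100% = median of positive control wells; one replicate is shown; the record names a cut of 25% in any replicate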
# Ecoli rRNA inh OD600: also measured in Ecoli rRNA inh; calls as there; OD600 change, %; measured here: OD600 growth;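 optical density of the mix in the first replicate; 0 = DMSO median and -100 = no signal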
# Ecoli rRNA inh RFP: further read-out of Ecoli rRNA inh, marked with its call; RFP signal change, %; measured here: RFP humanized mutant strains;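 first replicate; 0 = DMSO median and -100 = no signal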
# Active calls of the source: *; ? = inconclusive; . = no result given. Some of the compounds tested; the hit share may differ from the screen's.
SMILES,Ecoli rRNA inh,Ecoli rRNA inh OD600,Ecoli rRNA inh RFP,ALR H2O2 inh,A1 inh,B2AR ag,Calb FLC,T cruzi inh,Beta apoptosis,LANA-H2A inh
CC1CN(CC(=O)Nc2ccc(Br)cn2)CC(C)O1 (stereo unspecified),4.1,1.9,1.2,1.2,0.8,5.7,-3.4,-17.2,-7.1,-0.8
O=C(c1cc(Sc2ccc(Cl)cc2)nc2ccccc12)N1CCN(c2ccccn2)CC1,-16.2,-9.7,-0.8,-1.5,0.9,-4.3,.,.,4.0,-1.0
NC(=O)COC(=O)C(Cc1ccccc1)NS(=O)(=O)c1ccccc1F (stereo unspecified),.,.,.,-8.1,-0.6,-0.8,8.4,-14.0,-11.2,0.0
O=C(Nc1ccc(Oc2ccc(Cl)cc2)c(Cl)c1)c1cc(I)cc(I)c1O,.,.,.,29.8,-0.3,25.2,.,-9.3,-2.2,-1.4
O=C1Nc2ccccc2CCc2ccccc21,5.3,8.2,-1.5,.,1.7,-2.0,.,.,-6.6,-0.6
CCn1cc(/C=N\NC(=O)c2c[nH]c3ccccc23)c(C)n1,.,.,.,-2.8,0.2,3.1,21.4,-10.5,-2.6,7.7
Cc1ccccc1N(CC(=O)N1CCOCC1)S(C)(=O)=O,10.2,3.1,2.5,14.2,0.6,4.0,36.3,-7.2,-7.6,-5.8
O=C(c1cccc(C(F)(F)F)c1)C1CCCN(C(=O)CCc2cnccn2)C1 (stereo unspecified),0.8,-0.8,-0.8,4.7,0.3,-0.3,-4.6,7.3,-0.7,6.7
Cc1c(C(=O)Nc2ccc(Cl)cc2)c2ccccn2c1C(=O)c1ccccc1,.,.,.,-9.8,0.3,-1.9,40.7,11.1,7.4,1.0
CC(C)N(Cc1ccccc1)C(=O)c1ccc2c(c1)OCO2,-3.7,-9.4,-4.1,-13.4,-0.6,5.0,-0.5,6.1,-4.4,0.5
CCn1c(=O)c2ccccc2n2c(SCC(=O)N3CCCc4ccccc43)nnc12,8.4,4.0,-2.1,1.4,0.0,6.8,13.1,-11.1,-15.3,-1.1
Cc1cc(=O)oc2c(CN(CC(C)C)CC(C)C)c(O)ccc12,.,.,.,0.2,0.4,.,?,3.9,.,1.5
CCCC(=O)NC(c1ccccc1OC)c1ccc2cccnc2c1O (stereo unspecified),.,.,.,.,0.0,9.2,101.4*,81.2*,95.2*,-3.1
Cc1cc(S(=O)(=O)NCCc2ccccc2)c(C)s1,.,.,.,1.1,-0.6,12.1,3.5,-1.0,-0.6,-1.8
O=C(CCn1nc(-c2ccc(Cl)cc2)ccc1=O)NCc1ccccn1,.,.,.,-4.1,-0.3,-21.5,-1.5,0.4,3.6,-0.6

# 3 entries from above in a different format:
# Values run as follows: Ecoli rRNA inh, Ecoli rRNA inh OD600, Ecoli rRNA inh RFP, ALR H2O2 inh, A1 inh, B2AR ag, Calb FLC, T cruzi inh, Beta apoptosis, LANA-H2A inh
CC1CN(CC(=O)Nc2ccc(Br)cn2)CC(C)O1 (stereo unspecified)
 : 4.1, 1.9, 1.2, 1.2, 0.8, 5.7, -3.4, -17.2, -7.1, -0.8
O=C(c1cc(Sc2ccc(Cl)cc2)nc2ccccc12)N1CCN(c2ccccn2)CC1
 : -16.2, -9.7, -0.8, -1.5, 0.9, -4.3, ., ., 4.0, -1.0
NC(=O)COC(=O)C(Cc1ccccc1)NS(=O)(=O)c1ccccc1F (stereo unspecified)
 : ., ., ., -8.1, -0.6, -0.8, 8.4, -14.0, -11.2, 0.0

# Gathered by group, the entries above with fluorine (2)
SMILES,Ecoli rRNA inh,Ecoli rRNA inh OD600,Ecoli rRNA inh RFP,ALR H2O2 inh,A1 inh,B2AR ag,Calb FLC,T cruzi inh,Beta apoptosis,LANA-H2A inh
NC(=O)COC(=O)C(Cc1ccccc1)NS(=O)(=O)c1ccccc1F (stereo unspecified),.,.,.,-8.1,-0.6,-0.8,8.4,-14.0,-11.2,0.0
O=C(c1cccc(C(F)(F)F)c1)C1CCCN(C(=O)CCc2cnccn2)C1 (stereo unspecified),0.8,-0.8,-0.8,4.7,0.3,-0.3,-4.6,7.3,-0.7,6.7

# (further entries)
SMILES,Ecoli rRNA inh,Ecoli rRNA inh OD600,Ecoli rRNA inh RFP,ALR H2O2 inh,A1 inh,B2AR ag,Calb FLC,T cruzi inh,Beta apoptosis,LANA-H2A inh
CC(=O)c1c(C)[nH]c(C(=O)NCCc2c[nH]c3ccccc23)c1C,2.7,8.4,-0.4,-4.5,-0.8,-34.9,-0.7,4.9,4.5,1.8
CN(C)c1ccc(NC(=O)CN2CCN(S(=O)(=O)c3cc(Cl)ccc3Cl)CC2)cc1,.,.,.,98.8*,1.0,0.4,-1.1,15.4,-1.6,-5.8
CN(Cc1ccccc1)C(=S)NC(=O)c1ccc(-c2ccccc2)cc1,.,.,.,2.3,0.6,9.1,-2.5,17.8,-1.3,-0.6
Cc1c(C(=O)NN2CCN(C)CC2)cccc1[N+](=O)[O-],.,.,.,1.4,0.5,-3.8,-13.5,0.8,6.0,-4.3
CN(C(=O)c1cc([N+](=O)[O-])ccc1N1CCCC1)C1CCCCC1,-16.1,-17.8,-1.4,2.6,0.3,3.2,-25.9,3.6,0.4,5.4
COc1ccc(OCC(=O)N2c3ccccc3CC2C)c([N+](=O)[O-])c1 (stereo unspecified),-24.4*,-20.5*,3.5*,-11.1,0.2,1.2,.,.,-5.4,3.4
CCn1c(C)c(C)c2cc(C(=O)NCCCN3CCOCC3)ccc21,2.0,8.6,13.0,5.2,-0.7,26.1,-0.7,-2.9,-0.4,-6.2
CSc1ccc(/C=N/Nc2ccc(Cl)c(C(=O)O)c2)cc1,-5.5,-2.5,-1.9,45.4,-6.6,5.8,-3.3,-10.0,-16.2,-1.9
CC(=O)OCC1OC(n2ncc(=O)n(Cc3ccccc3)c2=O)C(OC(C)=O)C1OC(C)=O (stereo unspecified),4.4,0.4,1.6,-3.4,0.3,-4.2,-5.7,13.1,.,0.4
CC(C)(C)OC(=O)[C@H](CCCCN)NC(=O)c1nc[nH]c1C(=O)N[C@@H](CCCCN)C(=O)OC(C)(C)C,6.8,5.8,2.7,1.3,0.0,-7.7,.,.,-3.0,-2.5
Cc1ccc(C2C=C(c3ccccc3OC(F)F)Nc3ncnn32)cc1 (stereo unspecified),.,.,.,.,0.5,9.9,-5.2,-8.2,-1.0,-2.7
O=C1N=c2ccccc2=C1c1c(O)[nH]c2c(C(F)(F)F)cccc12,7.0,6.2,2.5,.,0.8,-1.1,2.7,-15.1,-2.8,1.4
COc1cc(OC)c(C(=O)Nc2cccc(C(C)=O)c2)cc1OC,.,.,.,.,0.8,-4.6,2.1,-4.0,-1.2,4.4
CS(=O)(=O)N(CC(=O)N1CCCC1)c1ccccc1F,3.5,8.2,-4.8,-4.3,0.7,-10.4,-2.2,-6.0,-3.0,3.1
COc1cc(C(=O)N(Cc2cccnc2)Cc2cc3cc4c(cc3[nH]c2=O)OCCO4)cc(OC)c1OC,.,.,.,-18.1,0.0,4.9,8.0,1.5,2.0,8.8
Cc1cc(Nc2ccccc2)n(CCC#N)n1,2.6,4.8,-2.2,98.6*,0.4,-10.8,-3.7,-7.7,2.0,-1.9
COc1cc(OC)c(OC)cc1CN1CCN(Cc2cccc(F)c2)CC1,9.9,12.3,2.1,-1.6,0.3,-2.5,-3.2,31.0,-0.2,-5.2
CC(=O)c1cccc(NS(=O)(=O)N(C)C)c1,.,.,.,-1.9,-0.7,-4.6,?,-20.3,-7.4,-3.8
O=C(NC1CCCCC1)Sc1ccc(Cl)cc1,.,.,.,20.9,-0.2,18.8,1.1,?,-9.4,6.0
CCOCCCNC(=O)Cc1ccc(Br)cc1,.,.,.,-3.3,1.4,-6.1,-1.3,-3.6,-5.7,3.5
N#CC(c1ccc(O)cc1)N1CCCCC1 (stereo unspecified),.,.,.,-21.0,-0.5,3.9,27.9,2.0,-4.9,-0.5
O=C(COC(=O)/C=C/c1ccccc1Cl)NC(=O)NCc1ccccc1,2.0,14.3,-0.7,-3.5,0.4,-5.6,.,.,-2.5,3.4
Cc1nnc(SCC(=O)N2c3ccccc3Sc3ccccc32)n1N,3.1,-2.2,0.1,-8.5,2.5,-5.0,6.6,19.7,-8.5,-0.5
CCN(CC)S(=O)(=O)c1ccc(S(=O)(=O)N2CCCC2)cc1,7.3,6.4,-1.9,.,-0.1,5.4,-4.0,-4.5,-5.2,3.8
COc1cc(NC(=O)c2cc3c(CO)cnc(C)c3oc2=Nc2cccc(C(N)=O)c2)cc(OC)c1,8.8,13.0,-1.0,-11.1,-0.2,0.7,0.6,-12.1,-3.4,2.4
COc1ccccc1NC(=S)NC1CC2CCC1C2 (stereo unspecified),11.4,2.9,-0.8,5.1,-0.3,-19.5,0.5,-33.8,-6.1,-1.7
Cc1cccc(-c2nc3ccccc3c(=O)n2NC(=S)N(C)C)c1,-4.2,-3.4,-11.8,11.6,-0.5,5.0,-27.7,-2.7,-2.4,4.4
O=S(=O)(c1ccccc1)c1nc(-c2cccs2)oc1NCC1CCCO1 (stereo unspecified),.,.,.,17.3,0.3,-5.8,-5.3,6.8,-1.8,-1.5
Cc1c(C)n(Cc2ccccc2)c2ncnc(NCCCO)c12,-4.6,-2.4,-0.7,1.1,-0.9,-2.6,4.0,-2.3,0.5,3.5
CC(=O)c1cccc(NC(=O)c2ccc(Br)o2)c1,.,.,.,-0.5,0.3,-5.6,13.5,-9.1,5.5,1.6
CC(Sc1nnc2ccccn12)C(=O)Nc1ncc(Cl)cc1Cl (stereo unspecified),.,.,.,0.0,-1.0,5.8,1.4,4.1,2.6,2.0
Cc1cnc(C)c(N2CCN(Cc3nc(-c4cccc(F)c4F)oc3C)CC2)n1,-15.6,-2.1,19.4,41.8,-1.0,-13.9,-22.5,18.4,3.8,0.1
CCOc1ccc(N(CC(=O)NCCSCc2ccc(C)cc2)S(C)(=O)=O)cc1,14.1,7.0,2.3,-9.9,-0.2,-2.3,9.0,4.6,-4.2,1.6
COc1cc(OC)c2cc[nH]c2c1,.,.,.,4.7,0.6,3.3,5.7,5.1,-1.8,5.7
O=C(COc1ccccc1)N1CCN(c2ccc([N+](=O)[O-])c(N3CCCCC3)c2)CC1,-24.4,-26.6,16.1,-6.5,0.3,8.0,14.6,12.0,0.3,-0.6
COc1cccc2c(C)cc(N3CCCCCC3)nc12,5.5,1.2,5.7,5.1,0.7,-4.8,12.5,26.1,-7.5,-1.7
CCC/S(C)=N/S(=O)(=O)c1ccc(C)cc1 (stereo unspecified),17.1,-2.1,2.0,-1.6,-0.1,9.3,-11.6,0.9,-0.9,-2.7
COc1cccc(/C=N/NC(=O)C(C)n2nnc3ccccc32)c1 (stereo unspecified),.,.,.,-1.2,-0.5,-18.0,8.9,-5.2,-9.8,0.0
